NS1 function inh: qHTS Assay for Inhibitors of Influenza NS1 Protein Function; 270,000 tested, 0.4% active; AID 2326, 2010; S. cerevisiae slowed by influenza A NS1, growth recovery by OD600; Potency, µM (titrated, usually from 46.1 µM), without a hit: top-dose activity, positive = more growth; active means well fitted rising curve with a large enough effect; inconclusive means small, poorly fitted or top-dose-only effect; inactive means no such curve, though single readings can be large or run the other way; also: nearly all actives have a fitted effect of over 50% in size
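In this qHTS, NS1 from influenza A is expressed in budding yeast, where it slows growth. Cells are switched from glucose to 2% galactose medium (pH 6.0, -URA), treated with compound, and growth recovery is read at OD600.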
LASV entry inh: qHTS for Inhibitors of binding or entry into cells for Lassa Virus | Lassa virus pseudotype entry inhibition, cell reporter; control for the full effect not named in the record | Potency, µM (titrated, usually from 37.9 µM), for inactives: top-dose activity change, negative = inhibition, usual class: inhibitors | 300,000 tested, 1.2% active | AID 540256, 2011; active means well fitted inhibition curve with a large enough effect; inconclusive means small, poorly fitted or top-dose-only effect, or effect the other way; inactive means flat fitted curve, though single readings scatter; tested in HEK293 cells; also: % is scaled to controls: 0 for no effect and ±100 for the full control effect; nearly all actives have a fitted effect of over 50% in size; luciferase read-out
SARS PLP yeast: qHTS of Yeast-based Assay for SARS-CoV PLP; 330,000 tested, 0.19% active; S. cerevisiae expressing SARS-CoV PLpro, growth rescue; control for the full effect not named in the record; Potency, µM (top dose mostly 32.9 µM), for inactives: at the highest dose activity, positive = growth rescue; active means well fitted rising curve with a large enough effect; inconclusive means small, poorly fitted or top-dose-only effect; inactive means no such curve, though single readings can be large or run the other way; also: 0% is about no effect; nearly all actives have a fitted effect of over 55% in size; growth read by luminescence after 48 h
Cruzain inh noDet: qHTS Assay for Promiscuous and Specific Inhibitors of Cruzain (without detergent). Cruzipain (Trypanosoma cruzi), P25779. purified cruzain, Z-FR-AMC fluorescence, no detergent. Potency, µM, for the others: max response, negative = inhibition, actives largely listed as inhibitors. 200,000 tested, 2.3% active. AID 1476, 2009;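 also: plate controls were enzyme without inhibitor for no effect and buffer without enzyme for full effect; nearly all actives have a fitted effect of over 40% in size; top concentration of the series not given in the record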
Target sequence (P25779 123-467 limits assumed): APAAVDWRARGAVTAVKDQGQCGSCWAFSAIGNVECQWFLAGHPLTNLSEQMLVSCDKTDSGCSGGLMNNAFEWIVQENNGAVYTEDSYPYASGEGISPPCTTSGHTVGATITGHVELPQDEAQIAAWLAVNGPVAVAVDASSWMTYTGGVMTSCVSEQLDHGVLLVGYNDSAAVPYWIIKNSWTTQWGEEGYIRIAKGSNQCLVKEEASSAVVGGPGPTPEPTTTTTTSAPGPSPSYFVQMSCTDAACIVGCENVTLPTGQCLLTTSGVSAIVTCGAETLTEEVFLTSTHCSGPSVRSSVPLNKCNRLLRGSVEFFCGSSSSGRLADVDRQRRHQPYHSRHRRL
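Purified cruzain at 1.5 nM, pre-incubated 15 min with compound at room temperature in 100 mM sodium acetate pH 5.5, 5 mM DTT, 0.00005% Triton X-100. Reaction started with 2 uM Z-FR-AMC; AMC fluorescence increase over 60 s gives rate.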
Cruzain inh Det: qHTS Assay for Promiscuous and Specific Inhibitors of Cruzain (with detergent); Potency, µM, for inactives: max response, negative = inhibition, actives largely listed as inhibitors; 200,000 tested, 0.43% active; Cruzipain (Trypanosoma cruzi), P25779; purified cruzain, Z-FR-AMC fluorescence, 0.01% Triton; AID 1478, 2009;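 also: plate controls were neutral wells for no effect and buffer without enzyme for full effect; nearly all actives have a fitted effect of over 40% in size; top concentration of the series not given in the record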
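Cysteine protease activity tested under reducing, mildly acidic conditions (100 mM sodium acetate pH 5.5, 5 mM DTT) plus 0.01% Triton X-100. Cruzain 1.5 nM; substrate Z-FR-AMC 2 uM; 15 min compound preincubation at room temperature.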
RE007 growth inh: qHTS Assay for Inhibitors of the HIV-1 protein Vpr; 360,000 tested, 0.21% active; S. pombe RE007 Vpr strain, BacTiter-Glo ATP luminescence, 24 h; control for the full effect not named in the record; Potency, µM (highest dose often 92.2 µM), for inactives: at the top dose activity change, negative = less growth; AID 651644, 2012; active = well fitted falling curve with a large enough effect; inconclusive = small, poorly fitted or top-dose-only effect; inactive = no such curve, though single readings can be large or run the other way;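 also: % is scaled to controls: 0 for no effect and ±100 for the full control effect; nearly all actives have a fitted effect of over 50% in size; the assay follows cell death caused by Vpr and the record does not say whether a fall means rescue or toxicity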
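Fission yeast RE007 carrying one integrated HIV-1 vpr copy, seeded at OD 0.01 in PMG+AL medium with 23 nL pinned compound. Grown 24 h at 30 degrees; viability read by BacTiter-Glo luminescence after 5 min.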
Marburg entry inh: qHTS for inhibitors of binding or entry into cells for Marburg Virus; Potency, µM (top dose mostly 37.8 µM), without a hit: at the top dose activity change, negative = inhibition, usual class: inhibitors; Marburg virus pseudotyped entry inhibition, cell reporter; control for the full effect not named in the record; about a third of the inactives were read at about 46 µM; 300,000 tested, 1.8% active; active = well fitted inhibition curve with a large enough effect; inconclusive = small, poorly fitted or top-dose-only effect, or effect the other way; inactive = flat fitted curve, though single readings scatter; tested in HEK293 cells; about a fifth of its hits are not listed in these tables; also: % is scaled to controls: 0 for no effect and ±100 for the full control effect; luciferase read-out
StopGo reporter: High Throughput Screening for Foot and Mouth Disease Virus Antivirals; Potency, µM (doses to about 57.9 µM), for inactives: at the top dose signal change, negative = less light; 410,000 tested, 1.2% active; human cells with a luciferase reporter of 2A StopGo recoding; control for the full effect not named in the record; active = well fitted falling curve with a large enough effect; inconclusive = small, poorly fitted or top-dose-only effect; inactive = no such curve, though single readings can be large or run the other way; tested in HEK293T cells; also: % is scaled to controls: 0 for no effect and ±100 for the full control effect; nearly all actives have a fitted effect of over 45% in size; luciferase light after 4 h
* hit, by the source's call; ? = inconclusive; · = not tested or not shown; & = joins results of further samples; [ ] = dose if it differs, or a comment. Unless noted, calls follow the shape of the dose curve; as a rule, active = well fitted curve in the direction sought with a large enough effect; inconclusive = small, poorly fitted or top-dose-only effect, or another doubt; inactive = no such curve, though single readings can be large; an effect the other way counts as inactive or inconclusive. Potency is read from the fitted curve at half-maximal effect. Rows were taken by chance; any-hit rate near 4.8%.

SMILES | NS1 function inh | LASV entry inh | SARS PLP yeast | Cruzain inh noDet | Cruzain inh Det | RE007 growth inh | Marburg entry inh | StopGo reporter
CCCSC1=C(C#N)C(c2ccccc2C)C(C(=O)OC)C(=O)N1 (stereo not drawn) | 3% | -1% | 7% | -22% | -6.8% | 11% | -24% | ·
COc1ccc(NC(=O)ON=C2c3ccccc3-c3ccccc32)cc1 | -89% | ? | -20% | -3% | -11% | -10% | 28% | 16%
COC(=O)c1c(NC(=O)Cc2ccccc2)sc2c1C(C(=O)OC)CC2 (stereo not drawn) | · | -28%[46.1 µM] | 0% | · | · | -4% | ? | -12%
CCCCn1c(O)c(C=NC2CCCCC2N)c(=O)[nH]c1=O (stereo not drawn) | -3% | 9% | 15% | 19% | 0.2% | 5% | -1% | -18%
Cc1cccn2c(=O)c(C=O)c(Cl)nc12 | -63% | ? | -2% | · | · | -12% | ? | 32µM*
COc1cc(C(=O)Nc2ccc(N3CCCS3(=O)=O)cc2)c([N+](=O)[O-])cc1OC | · | 12% | 10% | · | · | -6% | -8% | -16%
Cc1[nH]nc(S(=O)CC(=O)O)c1[N+](=O)[O-] (stereo not drawn) | · | 0%[46.1 µM] | 0% | · | · | 4% | 9%[46.1 µM] | -8%
N#CCc1ccc(NS(=O)(=O)c2ccc(N3CCCC3=O)cc2)cc1 | 1% | -16% | 18% | -1% | -1.3% | 4% | -1% | 0%
Cc1cccc(NC(=O)COC(=O)[C@@H]2CCCN2C(=O)c2cccs2)c1 | · | 3% | -16% | · | · | -5% | 4% | -13%
CCOC(=O)c1c(C)n(S(=O)(=O)c2ccc(C)cc2)c2ccc(NS(=O)(=O)c3ccc(C)cc3)cc12 | · | 6.3µM* | · | 4µM* | -1.6% | · | -30%[46.1 µM] | -6%
Cn1c(SCC(=O)N/N=C/c2cccs2)nc2ccccc21 | -5% | 10% | 2% | 9% | 2.7% | 4% | 1% | 0%
C=CC#CC1(O)CC(C)N(C)CC1C (stereo not drawn) | · | 20% | 2% | · | · | 7% | · | -7%
O=[N+]([O-])c1ccc(-c2nc(-c3ccc(F)cc3)c(-c3ccncc3)[nH]2)cc1 | ? | ? | · | ? | -5.2% | · | 8.2µM* | ·
Cc1cc(C)cc(NC(=O)c2c(C)oc3nc(C)nc(N4CCCC4)c23)c1 | · | -8%[46.1 µM] | · | -11% | -1.7% | · | · | -8%
O=C(O)c1cccc2[nH]c(C(F)(F)F)nc12 | -2% | 7% | -10% | -3% | 6.6% | -4% | 1% | 0%
CCOC(=O)Cn1cnc2c(cnn2-c2ccc(C)c(C)c2)c1=O | · | ? | · | 15% | -4.0% | · | 0%[46.1 µM] | 28%
CC(=O)N1CCN(S(=O)(=O)c2cccc(C(=O)NNC(=O)COc3c(C)cccc3C)c2)CC1 | · | ? | 0% | · | · | 0% | 10% | -26%
CCc1ccccc1OCC(=O)N1CCN(c2ncccn2)CC1 | · | -1% | -1% | · | · | -11% | 1% | -12%
CCN(C(=O)COC(=O)/C(=C/c1ccccc1)n1nnnc1C)C1CCCCC1 | · | -8% | 0% | · | · | 17% | 13µM* | 22µM*
OCC1OC2C(NC(=S)N2c2ccccc2)C(O)C1O (stereo not drawn) | · | 1%[46.1 µM] | · | · | · | -16% | 1% | -15%
COc1cccc(/C=N/N2C(=O)NC3(CCCCC3)C2=O)c1O | 9% | ? | 11% | 8% | -2.5% | -1% | 12% | 67%
Clc1ccc(C(c2nnnn2C2CCCC2)N2CCN(Cc3ccncc3)CC2)cc1 (stereo not drawn) | -17% | 2% | -1% | 10% | 6.5% | 18% | -4% | 7%
CC(=O)NC1CC2CCCC(C1)N2C(=O)Nc1cccc(C)c1 (stereo not drawn) | · | 1%[46.1 µM] | · | · | · | -17% | -3%[46.1 µM] | -2%
NS(=O)(=O)c1ccc(CCNC(=O)CSc2nc3ccccc3c3nc(CCN4CCCCC4)nn23)cc1 | · | -1%[46.1 µM] | 1% | · | · | -6% | -17%[46.1 µM] | 5%
Cc1nc(C)c(C(=O)Nc2nc3c(C)cccc3s2)o1 | -47% | -9% | -6% | -8% | -9.9% | -14% | 2% | -24%
Cc1ccc(S(=O)(=O)Nc2ccccn2)cc1[N+](=O)[O-] | · | -4% | -1% | · | · | 5% | 1%[46.1 µM] | 32%[activator]
Cc1ccc(CSCC(=O)Nc2ccc3c(c2)OCO3)cc1 | -73% | -1% | ? | -2% | -2.3% | 21% | ? | 0%
Cc1ccccc1CO/N=C/c1[nH]ncc1Br | -12% | 14%[46.1 µM] | 0% | · | · | -2% | -5%[46.1 µM] | -7%
CC(NCCc1ccc(S(N)(=O)=O)cc1)C(=O)NCc1ccccc1 (stereo not drawn) | -2% | 10%[46.1 µM] | 3% | · | · | -1% | -23%[46.1 µM] | -4%
NC(=O)c1cc(Br)cc2c3c([nH]c12)CCCC3 | -118% | ? | -33% | -5% | -15% | ? | ? | 20%
O=C(Cc1ncn[nH]1)NCCc1ccccc1 | 7% | · | -12% | 9% | 3.9% | -4% | 1% | 4%
CCOc1ccc(-n2c(SCC(=O)Nc3cc(OC)c([N+](=O)[O-])cc3C)nc3ccccc32)cc1 | 27% | ? | 8% | 7.9µM* | -2.5% | 13% | -29% | 0%
COc1cccc(/C=C2/C(=O)NN(c3ccccc3)C2=O)c1 | 4% | 0% | 2% | · | · | 28% | -9% | ?
CN(C)c1cccc(C(=O)NCc2ccc(Cl)cc2)c1 | -3% | -15% | -2% | · | · | -11% | 0%[46.1 µM] | -2%
Cc1ccc(CC(=O)N2CCN(Cc3ccccc3)CC2)cc1 | -5% | · | 0% | · | · | -9% | · | 0%
Cc1ncc([N+](=O)[O-])n1CC(=O)Nc1cccc(C(F)(F)F)c1 | 14% | · | 4% | · | · | -9% | · | -9%
CCC(CC)c1nnc(NC(=O)c2nc3nc(C)cc(C)n3n2)s1 | 9% | -2% | 12% | -8% | 4.7% | -9% | -18% | 0%
COc1ccc(NCc2nnc(SCC(=O)c3ccc(OC)cc3)o2)cc1 | 6% | 1% | -6% | -3% | -7.4% | -5% | ? | 0%
N=c1c2c(-c3ccccc3)c(-c3ccccc3)n(Cc3ccco3)c2ncn1CCO | 2% | ? | -20% | -2% | -3.4% | -4% | ? | ?
COc1ccc(NC(=O)COc2cccnc2[N+](=O)[O-])cc1OC | · | ? | 0% | · | · | 11% | ? | 4%
CCOC(=O)c1sc(Nc2nc3ccc(OC)cc3s2)cc1C | 25% | -2% | -53% | ? | -4.0% | 20% | -8%[46.1 µM] | -11%
Cc1ccccc1NC(=O)C1CCC(CNS(=O)(=O)c2ccc3c(c2)C(C)(C)C(=O)N3C)CC1 (stereo not drawn) | · | 0%[46.1 µM] | · | ? | 0.1% | · | · | ?
O=C(CN(C(=O)c1csnn1)c1cccc(Cl)c1)NCCc1ccccc1 | 2% | ? | 2% | · | · | -4% | -28%[46.1 µM] | -15%
COc1ccc2[nH]c(=O)c(CNC3CCCCC3)cc2c1 | 0% | 1% | 0% | -7% | -2.6% | -7% | 7% | -5%
COc1ccc(CN2c3cc(S(=O)(=O)N4CCOCC4)ccc3N3CCCC32)cc1 (stereo not drawn) | 10% | 4% | 9%[6.58 µM] | -15% | 6.6% | -19% | 11% | -21%
Cc1ccc(-c2csc(-c3c[nH]c4ccccc34)n2)cc1 | -7% | ? | -17% | 1% | -7.8% | -15% | ? | 51%[activator]
CCC(C)CNC(=O)c1cccc(OC2CCN(CC(C)(C)C)CC2)c1 (stereo not drawn) | · | -11%[46.1 µM] | · | · | · | -14% | 0%[46.1 µM] | -10%
CCC1CCC(C(=O)NC(C(=O)NCCc2ccc(S(N)(=O)=O)cc2)C(C)C)CC1 (stereo not drawn) | 6% | · | 1% | · | · | 3% | · | 15%
Cc1ncc[nH]1 | · | · | -2% | -1% | 2.1% | 0% | 2% | -15%
CCc1ccc(NC(=O)Cn2nc(C)n3cccc3c2=O)cc1 | 3% | · | -2% | · | · | -1% | · | -6%
CCCCn1cnc2c(SCCc3ccccc3)nc(N)nc21 | · | 9% | · | · | · | -23% | 4% | 2%
CN1CCN(c2oc(-c3ccc(COc4ccccc4)o3)nc2C#N)CC1 | · | -24%[46.1 µM] | · | 10% | -3.2% | · | 3%[46.1 µM] | -6%
Cc1ccccc1OCC(=O)NCCCNC(=O)c1ccncc1 | 1% | 11%[46.1 µM] | -3% | · | · | 5% | -16%[46.1 µM] | -1%
Oc1c(CN2CCN(c3ccccc3)CC2)cc(Br)c2cccnc12 | -38%&1% | · | ? | 12% | 2.0% | 3% | · | ?
Cc1ccc(-c2cc(C(=O)Nc3c(C)n(C)n(-c4ccccc4)c3=O)[nH]n2)c(O)c1 | -12% | -4% | 1% | 5% | 0.2% | 17% | ? | -15%

Complete entries as entered above:
CCOC(=O)c1sc(Nc2nc3ccc(OC)cc3s2)cc1C in the list: NS1 function inh: 25%; LASV entry inh: -2%; SARS PLP yeast: -53%; Cruzain inh noDet: ?; Cruzain inh Det: -4.0%; RE007 growth inh: 20%; Marburg entry inh: -8%[46.1 µM]; StopGo reporter: -11%
Cc1ccccc1OCC(=O)NCCCNC(=O)c1ccncc1 in the list: NS1 function inh: 1%; LASV entry inh: 11%[46.1 µM]; SARS PLP yeast: -3%; Cruzain inh noDet: ·; Cruzain inh Det: ·; RE007 growth inh: 5%; Marburg entry inh: -16%[46.1 µM]; StopGo reporter: -1%
